# Source: PubChem BioAssay (National Center for Advancing Translational Sciences (NCATS))
# TRPV1 PAM = potentiators of human vanilloid receptor 1 (TRPV1) | actives 0.02% (n = 320,000) | Q8NER1 | AID 540277 | TRPV1-expressing cells, Fluo-8 calcium influx, capsaicin EC20 potentiation; host cell line not named in the record; control for the full effect not named in the record | potentiation, % at 8.33 µM; active means potentiation above 80%; inconclusive means 30% to 80%; inactive means below 30%; also: 0% is about no effect
# Target sequence (Q8NER1 whole entry, looked up): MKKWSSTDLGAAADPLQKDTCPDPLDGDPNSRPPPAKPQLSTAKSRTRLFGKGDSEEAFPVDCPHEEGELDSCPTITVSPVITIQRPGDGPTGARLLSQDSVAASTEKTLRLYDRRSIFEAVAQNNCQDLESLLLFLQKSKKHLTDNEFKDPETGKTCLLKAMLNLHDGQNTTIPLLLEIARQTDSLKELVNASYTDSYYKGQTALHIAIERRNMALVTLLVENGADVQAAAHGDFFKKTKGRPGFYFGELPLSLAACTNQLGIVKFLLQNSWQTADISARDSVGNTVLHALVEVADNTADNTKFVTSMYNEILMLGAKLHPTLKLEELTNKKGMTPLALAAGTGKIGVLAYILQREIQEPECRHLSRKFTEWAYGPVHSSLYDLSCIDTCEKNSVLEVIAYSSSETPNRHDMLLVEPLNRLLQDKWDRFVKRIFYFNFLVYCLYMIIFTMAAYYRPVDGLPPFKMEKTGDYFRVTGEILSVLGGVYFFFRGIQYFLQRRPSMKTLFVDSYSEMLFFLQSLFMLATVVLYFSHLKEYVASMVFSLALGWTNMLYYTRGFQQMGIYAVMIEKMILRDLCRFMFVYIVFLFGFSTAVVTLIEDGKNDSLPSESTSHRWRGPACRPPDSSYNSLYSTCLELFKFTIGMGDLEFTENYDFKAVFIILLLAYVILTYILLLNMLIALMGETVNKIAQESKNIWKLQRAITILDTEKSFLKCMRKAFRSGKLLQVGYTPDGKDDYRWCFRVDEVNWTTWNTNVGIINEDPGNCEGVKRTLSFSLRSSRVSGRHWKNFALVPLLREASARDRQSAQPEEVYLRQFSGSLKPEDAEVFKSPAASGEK
#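 TRPV1-expressing cells were cultured overnight at 35.5C and loaded with Fluo-8 calcium dye for 40 to 90 min at room temperature. After a 10 s baseline, compound was added and calcium influx was read kinetically for 3 min (ex 480/em 520 nm).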
# Six1-Eya2 blk = inhibitors of human Six1/Eya2 interaction; actives 0.56% (n = 360,000); AlphaScreen GST-Six1/His-Eya2 binding, biochemical; active compounds read low; control for the full effect not named in the record; activity change, % (test concentration not listed); AID 651725; in the data active = activity change below about -65%; inconclusive = about -30% to -65%; inactive = above about -30%; also: % is scaled to controls: 0 for no effect and ±100 for the full control effect
#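 AlphaScreen with GST-Six1 and His-Eya2 (5X mix: 250 nM and 500 nM), glutathione donor and nickel acceptor beads; buffer 50 mM Tris pH 8.0, 300 mM NaCl, 1 mM TCEP; 1 h at 37 C in the dark.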
# Sfp inh = Sfp phosphopantetheinyl transferase inhibition; Potency, µM, for inactives: max response, negative = inhibition, actives largely listed as inhibitors; Biochemical Sfp PPTase activity, qHTS; actives 3.5% (n = 310,000); Q9F4F7; active = well fitted inhibition curve with a large enough effect; inconclusive = small, poorly fitted or top-dose-only effect, or another doubt; inactive = no such curve, though single readings can be large or run the other way;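 also: the enzyme is Sfp with the accession as filed and its product quenches rhodamine fluorescence; potency is read from the fitted curve at half-maximal effect; 0% = enzyme reaction without inhibitor and -100% = no enzyme wells; top concentration of the series not given in the record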
#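 Compounds were incubated with enzyme (final 15 nM) for 15 min at room temperature before substrate addition started the reaction. Fluorescence at 525 nm excitation, 598 nm emission was recorded immediately and after 30 minutes.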
# D2 potentiator = potentiates the human D2 dopamine receptor allosterically; potentiation, % (test concentration not listed); actives 0.23% (n = 360,000); P14416; DiscoveRx D2 beta-arrestin cells, luminescence, 90 min; 100% = 57 uM dopamine signal; AID 624464; active = potentiation of 50% or more; inconclusive = 30% to 50%; inactive = 30% or less;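 also: compound concentration not given in the record; tested on top of an EC20 dose of dopamine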
#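 PathHunter beta-arrestin assay in DiscoveRx D2 cells. Compounds were added with an EC20 of dopamine (50 nM final) for 90 min at 37 deg C. Luminescence was read 1 h after detection reagent, with 57 uM dopamine as the EC100 control.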
# CtBP-E1A blk = blocks the CtBP interaction with E1A; actives 0.49% (n = 340,000); AlphaScreen GST-E1A/His-CtBP binding, 1536-well; active compounds read low; control for the full effect not named in the record; activity change, % (test concentration not listed); in the data active means activity change below about -65%; inconclusive means about -30% to -65%; inactive means above about -30%; also: % is scaled to controls: 0 for no effect and ±100 for the full control effect
#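 Protein mix (5X: 125 nM each GST-E1A, His-CtBP) was incubated with pinned compound 2 h at 37 deg C in dark, in 50 mM Tris pH 8.0 buffer with 300 mM NaCl. Glutathione donor and nickel acceptor beads followed; AlphaScreen signal read after 1 h.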
# PINK1 expr mod = PINK1 expression modulation; AID 624263; actives 0.2% (n = 410,000); Potency, µM (titrated, usually from 76.6 µM), inactives show top-dose activation (PINK1 increase), hits mostly activators; PINK1 immunofluorescence, high-content cytometry, 24 h; active = well fitted activation curve with a large enough effect; inconclusive = small, poorly fitted or top-dose-only effect; inactive = flat fitted curve, though single readings scatter; cell line not stated here;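 also: potency is read from the fitted curve at half-maximal effect; % of control where 0% means no effect; nearly all actives have a fitted effect of over 65% in size; a mitochondrial uncoupler was the plate control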
#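 Cells are seeded, rested 12 hours, then given compound at five concentrations or DMSO for 24 hours. After fixation, blocking and antibody staining, PINK1 amount and mitochondrial localization are scored; CCCP serves as control.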
# D2 ag = human D2 receptor agonism in beta-arrestin assay. P14416. actives 0.084% (n = 360,000). activation, % (test concentration not listed). DiscoveRx PathHunter D2 beta-arrestin, luminescence, 90 min; 100% = 57 uM dopamine signal; in the data active = activation above about 40%; inconclusive = about 15% to 40%; inactive = below about 15%; also: compound concentration not given in the record; the text of the record calls up to 30% inactive
#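 Agonist mode: compounds alone added to overnight-plated D2 PathHunter cells for 90 min at 37 C, with 57 uM final dopamine (EC100) defining full response. Beta-arrestin recruitment detected by chemiluminescent reagent, read after 1 h at ambient temperature.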
# Active calls of the source: *; u = inconclusive; x = not tested or not shown; & = joins results of further samples; [ ] = dose if it differs, or a comment.
[1] COc1ccc(CCN2C(=NC(=O)CCC(=O)O)SC3CS(=O)(=O)CC32)cc1 (stereo not given)
[2] COc1ccc(C(=O)NCc2ccncc2)cc1S(=O)(=O)NCc1ccc(Cl)cc1
[3] CCCCNC(C(=O)Nc1ccc([N+](=O)[O-])cc1Br)c1ccccc1 (stereo not given)
[4] CC(=O)Nc1ccc(N2C(=O)CSC2c2cccc(Br)c2)cc1 (stereo not given)
[5] c1ccc(CN2CCC3(CC2)Nc2ccccc2S3)cc1
[6] C=CCN1C(=O)N(/C=C/C)c2cccc3cccc1c23
[7] Cc1cc(NC(=O)CSc2nc(=O)n3cc(Cl)ccc3n2)no1
[8] CCOC(=O)c1sc2nc(CN3CCCCC3)nc(Cl)c2c1C
Assay by compound	1	2	3	4	5	6	7	8
TRPV1 PAM	-9	-7	7	2	-1	u	8	14
Six1-Eya2 blk	3	2	-14	4	-26	8	-4	-8
Sfp inh	6%	x	32µM*	10%	79µM*	-2%	x	-3%
D2 potentiator	7	-3	-16	-4	-20	0	-3	-9
CtBP-E1A blk	5	-5	-22	1	-17	8	5	-10
PINK1 expr mod	-4.5%[38.3 µM]	-0.9%	6.0%	2.7%	3.2%	-1.7%	1.1%	-1.5%
D2 ag	2.0	-0.4	-3.7	-1.1	-4.0	-2.0	-1.5	-2.8

[9] CCn1nnc(-c2ccc(N)cc2)n1
[10] Cc1ccc(C(=O)c2ccccc2C(=O)OCC(=O)Nc2cccc([N+](=O)[O-])c2)cc1
[11] CC(=O)Nc1cccc(-c2ccnc3c2CC(C(=O)Nc2ccccc2)O3)c1 (stereo not given)
[12] Cc1ccc(S(=O)(=O)Nc2ccc3nc(-c4cccn4C)[nH]c3c2)cc1
[13] COc1ccccc1CN1CC(C(=O)NCCCCc2ccccn2)CCC1=O (stereo not given)
[14] O=C(N/C(=C\c1ccco1)C(=O)N1CCCC(CO)C1)c1ccccc1 (stereo not given)
[15] NC(=O)c1ccc(NC(=O)COC(=O)C2COc3ccccc3O2)cc1 (stereo not given)
[16] C=CCNC(=S)N/N=C(\C)c1ccccn1
Assay by compound	9	10	11	12	13	14	15	16
TRPV1 PAM	-4	-4	x	13	x	u	x	-17
Six1-Eya2 blk	-3	-3	0	u	-4	2	-1	-89*
Sfp inh	15%	16%	x	u	x	18%	x	79µM*
D2 potentiator	-4	-25	-6	-16	-11	-11	2	5
CtBP-E1A blk	7	23	-1	-1	-3	0	3	-97*
PINK1 expr mod	0.0%	3.3%	0.5%	2.9%	1.3%	-0.4%	-1.3%	-4.8%[38.3 µM]
D2 ag	-1.6	-2.7	-3.5	-3.2	-2.3	-3.2	0.5	1.9

[17] CCOC(=O)c1cn(-c2ccc(F)c(F)c2F)c2c(F)c(F)c(F)cc2c1=O
[18] Cc1noc(NS(=O)(=O)c2ccc(NC(=O)COc3ccc(C#N)cc3)cc2)c1C
[19] O=C(COC(=O)c1cccc(NS(=O)(=O)c2ccc(F)c(F)c2)c1)NC(=O)NC1CCCC1
[20] COc1ccc(S(=O)(=O)N2CCCCCC2)cc1C(=O)OC(C)C(N)=O (stereo not given)
[21] CC(C)CC(COCc1ccc(F)cc1)N1CCN(C(=O)c2cccc(C(F)(F)F)c2)CCC1=O (stereo not given)
[22] C=CCNc1nc(-c2ccc(OC)cc2OC)cs1
[23] CC1C/C(=N/NC(=O)c2ccc(CSc3nc4ccccc4[nH]3)cc2)CC(C)(C)C1 (stereo not given)
[24] CC1=C(C(N)=O)C(c2ccc(Br)cc2)n2nc(CCCO)nc2N1 (stereo not given)
Assay by compound	17	18	19	20	21	22	23	24
TRPV1 PAM	4	x	4	15	-3	0	13	15
Six1-Eya2 blk	20	-9	16	4	-1	-22	-1	4
Sfp inh	11%	x	14%	16%	6%	-11%	-8%	5%
D2 potentiator	13	-12	21	-1	-4	-27	-4	-3
CtBP-E1A blk	9	-2	0	3	x	-30	-3	8
PINK1 expr mod	7.1%	1.1%	1.4%	0.8%	1.3%	6.3%[38.3 µM]	-2.7%	-2.3%
D2 ag	-0.8	0.0	8.9	-1.5	0.5	-4.0	2.5	-2.2

[25] O=C(Cc1ccc(Br)cc1)Nc1ccc(S(=O)(=O)Nc2ncccn2)cc1
[26] Cc1c(N)cccc1Cl
[27] Cc1cc(Cl)ccc1NC(=S)NCCc1ccc(S(N)(=O)=O)cc1
[28] COc1ccc(CCNC(=O)Cn2c(=O)oc3cc(Cl)ccc32)cc1OC
[29] CC1CCCN(CC(=O)Nc2cc(S(=O)(=O)N3CCOCC3)ccc2N2CCCC2)C1 (stereo not given)
[30] Cc1cc(C)c2c(n1)sc1c(=O)[nH]c(SCc3ccccc3)nc12
[31] O=S1(=O)C=C(SCCN2CCCC2)c2ccccc21
[32] CCCN1CCN(CCCNC(=O)C2CCN(c3nnc(-n4cccc4)s3)CC2)CC1
Assay by compound	25	26	27	28	29	30	31	32
TRPV1 PAM	17	x	x	4	-20	14	1	4
Six1-Eya2 blk	-1	2	-3	0	0	-1	4	1
Sfp inh	-8%	12%	x	0%	x	2%	-4%	4%
D2 potentiator	-9	-4	7	4	-11	4	4	-4
CtBP-E1A blk	-1	5	1	3	x	3	1	1
PINK1 expr mod	2.9%	0.1%	0.0%	-1.2%	-0.3%	-1.7%	1.5%	0.9%
D2 ag	0.3	3.3	0.7	0.3	-2.4	1.7	-2.7	-3.3

[33] COc1ccc(CC(C(=O)Nc2cc(C)ccc2C)/C(N)=N/O)cc1 (stereo not given)
[34] CCc1nc2sc(C)c(C)c2c(=O)n1CCO
[35] Cc1ccc(-c2nc(CN(CC3CCC3)CC3CCCO3)c(C)o2)s1 (stereo not given)
[36] CCN(CC)S(=O)(=O)c1cc(C(=O)OCC(=O)NC2CCCc3ccccc32)ccc1C (stereo not given)
[37] COc1cccc(NC(=O)CNC(=O)N2CC(=O)Nc3ccccc32)c1
[38] O=[N+]([O-])c1ccc(N2CCCC2)cc1NC1CC1
[39] CSc1nnc(Cc2sc(-c3ccccc3)nc2-c2ccccc2)o1
[40] Cn1c(Oc2ccccc2NCc2cc(Br)ccc2O)cc(=O)n(C)c1=O
Assay by compound	33	34	35	36	37	38	39	40
TRPV1 PAM	6	-3	-10	13	-2	-41	16	-6
Six1-Eya2 blk	2	4	-11	-2	16	0	23	u
Sfp inh	17%	7%	16%	7%	18%	-22%	-8%	11%
D2 potentiator	-16	-16	-9	-17	-8	-26	-32	-8
CtBP-E1A blk	-5	-3	7	0	0	22	38	-24
PINK1 expr mod	-2.3%	0.8%	11%	1.0%	-1.1%	-1.6%	1.2%	4.4%
D2 ag	-2.7	1.3	-2.2	-3.0	2.4	-6.0	-5.1	-2.8

[41] Cc1cc(C)nc(NS(=O)(=O)c2ccc(NC(=O)CCC(=O)O)cc2)n1
[42] CCOc1cc(N2CCOCC2)c(OCC)cc1NC(=O)c1ccc(-n2ccnc2)c([N+](=O)[O-])c1
[43] O=C(Nc1cccc2c1CCCC2)c1ccco1
[44] COc1cccc(C(c2c(C)[nH]n(-c3ccccc3)c2=O)c2c(C)[nH]n(-c3ccccc3)c2=O)c1O
[45] Cc1cc(C)c(S(=O)(=O)N2CCN=C2c2ccccc2)cc1C
[46] Cc1ccc(N2C(=O)N(CC(=O)N3c4ccccc4CC3C)C(=O)C2C)cc1 (stereo not given)
[47] Cc1n[nH]c(C)c1S(=O)(=O)N(CC(=O)Nc1ccc2c(c1)OCCO2)c1ccc(C(C)C)cc1
[48] Cc1ccc(C(=O)Nc2ccccc2C(=O)NC(CC(=O)O)C(=O)O)cc1 (stereo not given)
Assay by compound	41	42	43	44	45	46	47	48
TRPV1 PAM	x	5	5	-5	-9	-23	x	0
Six1-Eya2 blk	-4	-6	5	-8	0	-2	-8	3
Sfp inh	x	16%	0%	15%	-4%	x	1%	12%
D2 potentiator	16	7	3	-12	-11	-3	-9	1
CtBP-E1A blk	6	-9	4	-13	-4	2	-2	10
PINK1 expr mod	0.5%	3.3%	0.4%[38.3 µM]	0.9%	-0.6%	4.1%	2.5%	x
D2 ag	-0.7	3.4	u	-3.4	-0.5	3.1	-2.8	-2.9

# Shown as tab-separated lines: part of the list above.
item	SMILES	TRPV1 PAM	Six1-Eya2 blk	Sfp inh	D2 potentiator	CtBP-E1A blk	PINK1 expr mod	D2 ag
42	CCOc1cc(N2CCOCC2)c(OCC)cc1NC(=O)c1ccc(-n2ccnc2)c([N+](=O)[O-])c1	5	-6	16%	7	-9	3.3%	3.4
47	Cc1n[nH]c(C)c1S(=O)(=O)N(CC(=O)Nc1ccc2c(c1)OCCO2)c1ccc(C(C)C)cc1	x	-8	1%	-9	-2	2.5%	-2.8
41	Cc1cc(C)nc(NS(=O)(=O)c2ccc(NC(=O)CCC(=O)O)cc2)n1	x	-4	x	16	6	0.5%	-0.7

# Next structures follow.
[49] COc1ccc(S(=O)(=O)N2CCOCC2)cc1C(=O)Nc1nc2ccccc2s1
[50] Cc1ccc(S(=O)(=O)NC(=O)NCC2CCN(S(=O)(=O)c3ccccc3)CC2)cc1
[51] CCN(CC(=O)Nc1ccc(NC(C)=O)cc1)C(=O)Cc1ccc(S(=O)(=O)N2CCOCC2)s1
[52] COc1cc(OC)cc(C(=O)NCC(=O)OCC(=O)C(C)(C)C)c1
[53] Cc1cc(C)cc(OCC(=O)OCC(=O)N2CCc3ccccc32)c1
[54] COc1ccc(NC(=O)CSc2nc(N)c(C(=O)Nc3ccc(N(C)C)cc3)s2)cc1
[55] O=C(NCC1CCCCC1)c1ccc2nc([C@@H]3O[C@H](CO)[C@H](O)[C@H](O)[C@H]3O)[nH]c2c1
[56] C=CCSc1nc(N)c(C#N)c(-c2ccc(C)cc2)c1C#N
[57] FC(F)(F)c1ccc(C2[C@H]3CN(Cc4ccc(-c5ccccc5)cc4)[C@H](c4ccccc4)C34CC2(c2ccccc2)C4)cc1 (stereo not given in full)
[58] COc1cc(C(=O)Oc2cccnc2)cc(OC)c1OC
Assay by compound	49	50	51	52	53	54	55	56	57	58
TRPV1 PAM	11	1	7	1	16	-6	x	-2	-9	7
Six1-Eya2 blk	-29	15	-2	2	8	-13	-9	1	-4	-3
Sfp inh	6%	7%	x	10%	x	-10%	x	7%	-2%&13%	1%
D2 potentiator	0	-4	2	-13	10	1	-2	-12	-1	8
CtBP-E1A blk	-23	0	3	x	-4	-13	6	9	3	x
PINK1 expr mod	15%[38.3 µM]	3.9%	1.2%	-0.6%	2.7%	12%	0.0%	6.3%	12%	-0.7%
D2 ag	-2.3	-0.9	-2.0	-5.2	7.0	3.6	3.5	-3.8	-0.5	2.9
